Screens as filed in PubChem BioAssay.
INS promoter inh: inhibitors of insulin promoter-driven GFP, primary screen, imaging, TRM-6 cells (human fetal islet line), eGFP reporter, cell count | inhibition, % at 2 µM | 0.9% of 130,000 active | reporter expression induced with tamoxifen;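 active means inhibition above the mean plus 3 SD, with well images judged a real hit on visual review, cut at about 60% in these data, passing the limit was not always enough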
RGS16-Gao HTS: modulators of RGS16 binding to Galphao, primary screen, biochemical, human proteins, multiplexed bead flow cytometry | bead-based flow cytometry RGS16-Galphao binding, fluorescence; actives lie on both sides | binding response (% of control), % at 10 µM | 0.38% of 220,000 active;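 active means below 25% or above 175%, edge rows of some plates excepted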;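 further: Galphao activated by GDP with aluminum fluoride before binding; 100% = wells without compound and 0% = beads without RGS; some results beyond the cut were filed as inactive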
Target sequence (O15492 whole entry, looked up): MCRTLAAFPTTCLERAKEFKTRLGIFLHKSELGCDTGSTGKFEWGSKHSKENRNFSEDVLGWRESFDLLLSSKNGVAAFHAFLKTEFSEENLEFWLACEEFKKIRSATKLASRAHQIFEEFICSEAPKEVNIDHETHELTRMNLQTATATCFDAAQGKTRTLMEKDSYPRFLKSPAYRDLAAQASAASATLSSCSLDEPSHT
Target sequence (P09471 whole entry, looked up): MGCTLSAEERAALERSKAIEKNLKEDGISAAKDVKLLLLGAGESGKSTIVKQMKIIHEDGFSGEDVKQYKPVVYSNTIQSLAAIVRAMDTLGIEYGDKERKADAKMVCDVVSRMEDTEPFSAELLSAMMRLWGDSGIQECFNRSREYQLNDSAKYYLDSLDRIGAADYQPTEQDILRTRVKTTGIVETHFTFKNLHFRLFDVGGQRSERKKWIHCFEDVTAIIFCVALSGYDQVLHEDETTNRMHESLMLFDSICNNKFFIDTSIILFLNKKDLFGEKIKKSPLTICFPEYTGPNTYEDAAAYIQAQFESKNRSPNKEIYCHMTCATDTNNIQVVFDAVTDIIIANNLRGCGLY
PKD1 kinase inh: inhibitors of human PKD1 kinase, biochemical, fluorescence polarization. Serine/threonine-protein kinase D1 (Homo sapiens), Q15139. PKD1 kinase fluorescence polarization assay. inhibition, %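 (about 10 µM by stock and volumes)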. 0.056% of 200,000 active. AID 797, 2007;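 active means inhibition of 50% or more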;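 further: controls were vehicle for no effect and a reference inhibitor for full effect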
HSV augment: enhancers of HSV replication in host cells, fold increase, host cell viability; HSV replication augmentation in cells; maximum fold increase; 0.005% of 220,000 active;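 active means peak rise of 1.5-fold or more in the series; tested in PC3 cells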;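 further: first round at 10 µM; read as green reporter fluorescence; hits show the peak of a series up to 25 µM; 1 = signal of infected wells without compound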
GALR2 ag: GALR2 receptor agonists, primary screen, cell-based | GALR2-expressing cells, agonist activation read-out | activation, %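 (tested at 5 µM)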 | 0.48% of 140,000 active;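 active means above mean plus 3 SD of all compounds, about 5% in these data, not always enough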;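 further: 0% = vehicle buffer wells and 100% = reference agonist at full effect; tested in CHO reporter cells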
Target sequence (O43603 whole entry, looked up): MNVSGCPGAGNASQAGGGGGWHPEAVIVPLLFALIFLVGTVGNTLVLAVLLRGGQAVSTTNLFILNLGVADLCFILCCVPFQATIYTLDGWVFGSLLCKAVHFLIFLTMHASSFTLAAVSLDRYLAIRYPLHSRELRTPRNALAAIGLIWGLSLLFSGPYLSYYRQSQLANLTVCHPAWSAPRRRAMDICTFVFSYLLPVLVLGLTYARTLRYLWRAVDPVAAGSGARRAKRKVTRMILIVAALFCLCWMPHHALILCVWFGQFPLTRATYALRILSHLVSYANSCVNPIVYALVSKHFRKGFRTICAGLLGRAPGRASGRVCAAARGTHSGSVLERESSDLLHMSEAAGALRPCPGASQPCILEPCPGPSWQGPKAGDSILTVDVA
INS promoter inh cell count: second read-out of INS promoter inh, no call of its own (marks repeat the call); normalized cell count, %; measured here: cell count, toxicity; reference of the scale not given here;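 cells exposed to compound for 48 h; stained nuclei by imaging scaled within each plate; lower means fewer cells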
HSV augment primary fold: also measured in HSV augment; calls as there; fold increase; compound at 10 µM; measured here: primary screen fold increase 10 uM; tested in PC3 cells;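 GFP signal in the first replicate; 1 = infected wells without compound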
* marks the source's active call; other numbers are inactive results; i = inactive; nt = no result given. Compounds as they come. Share with any hit: about 1.3%.

SMILES | HSV augment | GALR2 ag | RGS16-Gao HTS | HSV augment primary fold | INS promoter inh cell count | PKD1 kinase inh | INS promoter inh
COc1ccc(CNC(=O)C(c2ccco2)N(C(=O)c2ccccn2)c2ccccc2)cc1 (stereo unspecified) | i | nt | 102 | 1 | 93 | -1 | 7
O=C(NCCc1ccccc1)C1CCN(S(=O)(=O)c2cccs2)CC1 | i | 0.4 | 94 | 1.1 | nt | -5 | nt
COc1ccc(CCNC(=O)Cn2c(=O)n(Cc3ccco3)c(=O)c3ccc(Cl)cc32)cc1OC | i | -1.9 | 96 | 1 | 86 | -8 | -62
O=C(Nc1nc(-c2cccc3ccccc23)cs1)c1ccc2c(c1)S(=O)(=O)c1ccccc1C2=O | i | nt | 96 | 0.61 | 151 | -11 | -100
CCOc1ccc(NC(=O)CCN2CCN(S(=O)(=O)c3ccc(OC)cc3)CC2)cc1 | i | -2.0 | 227 | 0.89 | 100 | -8 | -8
O=C1CN=C(Nc2ccccc2Cl)N1c1ccccc1 | i | -1.9 | 87 | 1 | 219 | -3 | -26
CCC1S/C(=C(\C#N)C(N)=O)N(c2ccc(F)cc2)C1=O (stereo unspecified) | i | -0.9 | 106 | 0.95 | nt | -8 | nt
Cc1ccc(C(=O)N2CCN(c3cnn(C)c(=O)c3Cl)CC2)cc1 | i | nt | 101 | 1.1 | nt | 2 | nt
Fc1ccc(N2N=C(c3cccs3)CC2c2ccco2)c(F)c1 (stereo unspecified) | i | 10 | 90 | 1.2 | nt | -2 | nt
COc1cc(C2OCC3C(c4ccc(OC5OC(CO)C(O)C(O)C5O)c(OC)c4)OCC23)ccc1O (stereo unspecified) | i | nt | 103 | 0.86 | nt | 10 | nt
CCC(=O)N(Cc1ccc(C)cc1)Cc1cc2cc3c(cc2[nH]c1=O)OCO3 | i | 0.3 | 97 | 0.88 | 73 | 2 | -9
CC(C)(C)CC(C)(C)NCC(O)COCCOc1ccc(Br)cc1 (stereo unspecified) | i | -0.6 | 107 | 0.49 | 107 | -12 | -31
O=C(CSc1ccc(Cl)cc1)NCc1ccco1 | i | nt | 106 | 1.1 | nt | -4 | nt
COc1cc(SC#N)ccc1N=Cc1c(C)[nH]n(-c2cccc3ccccc23)c1=O | i | -3.0 | 91 | 0.9 | 121 | 1 | -39
Cc1ccc(NC(=O)CC2S/C(=N/N=C/c3c[nH]c4ccccc34)NC2=O)cc1 (stereo unspecified) | i | -0.8 | 131 | 0.95 | 97 | 0 | 53
C=CCn1c(C)cc(-c2csc(NC)n2)c1C | i | nt | 89 | 1 | 117 | 1 | -67
Cc1cccc(C)c1NC(=O)N1CCCC1C(=O)Nc1ccc(-n2cnnn2)cc1 (stereo unspecified) | i | nt | 110 | 1 | 100 | 3 | 30
COc1ccc(N(C(C)=O)S(=O)(=O)c2cccs2)cc1 | i | -0.8 | 137 | 0.96 | 58 | 1 | i
Cc1oc(-c2ccc(Cl)cc2)nc1CN1CCCC(C(=O)NCc2ccco2)C1 (stereo unspecified) | i | -1.9 | 85 | 0.82 | nt | -10 | nt
O=C(CN1CCNCC1)NCCSc1ccc(Cl)cc1 | i | nt | 100 | 0.95 | 111 | 3 | 11
CCn1cc(C(=O)N2CCN(c3ccccn3)CC2)c(=O)c2cc(S(=O)(=O)N(C)C3CCCCC3)ccc21 | nt | nt | 77 | nt | 70 | 1 | -7
CCCCN1CCCCC1C(=O)Nc1c(C)cc(C)cc1C (stereo unspecified) | i | 1.0 | 103 | 1.1 | nt | 3 | nt
COc1ccccc1NS(=O)(=O)c1ccc(NN=C2CCCC2)c([N+](=O)[O-])c1 | i | -0.2 | 114 | 1.1 | nt | -10 | nt
O=C(N/N=C/C(Br)=C/c1ccccc1)c1cc(-c2ccco2)[nH]n1 | i | nt | 99 | 0.77 | nt | -2 | nt
CC(C)OC(=O)c1nnc(Cc2ccc(Cl)cc2)o1 | nt | -0.2 | 101 | nt | 114 | -11 | 15
S=c1[nH]nc(COc2ccccc2)n1C1CCCCC1 | i | -0.1 | 60 | 0.86 | 181 | 2 | -26
O=C(CSc1ccc(Cl)cc1)Nc1ccc(N2CCN(C(=O)c3ccc(Cl)cc3)CC2)cc1 | i | -1.1 | 91 | 0.91 | 43 | -4 | 0
COc1ccc(S(=O)(=O)Nc2c(C(=O)O)[nH]c3ccccc23)cc1OC | i | -3.4 | 108 | 0.95 | 85 | -13 | 29
O=C(c1ccccc1)c1ccccc1C(=O)N1CCN(C(=O)c2ccccc2)CC1 | i | nt | 93 | 0.96 | nt | 1 | nt
O=C(NCCc1ccccc1)c1c(O)c2cccc3c2n(c1=O)CC3 | i | 0.3 | 102 | 0.89 | 94 | -7 | 0
Cc1ccc(-c2nnc(SCC(=O)Nc3ccc(N4CCOCC4)cc3)o2)cc1 | i | -1.5 | 103 | 0.9 | 102 | 1 | -10
CCOC(=O)c1ccc(N2Cc3ccccc3C2=N)cc1 | i | -2.0 | 101 | 0.89 | 96 | -2 | -4
O=C(NNC(=S)NC(=O)c1cccs1)c1ccc(NC(=O)c2ccccc2)cc1 | i | -1.3 | 97 | 0.92 | 76 | 0 | 29
O=C(NCc1ccccn1)C1CCCCC1 | i | nt | 102 | 0.94 | 141 | -11 | 2
COC(=O)CCc1nc2ccccc2nc1OC | i | nt | 105 | 1 | nt | -4 | nt
CC(=O)Nc1ccc2nc(NS(=O)(=O)c3ccc(C)cc3)sc2c1 | i | nt | 86 | 1.1 | nt | 3 | nt
CCn1c(Cl)c(C=O)s/c1=N\S(=O)(=O)c1ccccc1 | i | nt | 105 | 0.77 | nt | nt | nt
COC(=O)Cc1ccc2c3ccccc3n(C)c2c1 | i | -0.5 | 103 | 0.99 | 72 | -10 | -70
COc1cc(NC(=O)Cc2nn(C)c(=O)c3ccccc23)cc(OC)c1OC | i | -1.3 | 108 | 1.1 | 99 | 2 | -7
CCO[C@@H]1OC(C(=O)N2CCN(Cc3ccc4c(c3)OCO4)CC2)=C[C@H](C2CC2)[C@H]1CCCO | i | nt | 100 | 1.1 | nt | -2 | nt

Record cards (already shown).
O=C(N/N=C/C(Br)=C/c1ccccc1)c1cc(-c2ccco2)[nH]n1 as listed: HSV augment: i; GALR2 ag: nt; RGS16-Gao HTS: 99; HSV augment primary fold: 0.77; INS promoter inh cell count: nt; PKD1 kinase inh: -2; INS promoter inh: nt
Cc1ccc(C(=O)N2CCN(c3cnn(C)c(=O)c3Cl)CC2)cc1 as listed: HSV augment: i; GALR2 ag: nt; RGS16-Gao HTS: 101; HSV augment primary fold: 1.1; INS promoter inh cell count: nt; PKD1 kinase inh: 2; INS promoter inh: nt
COC(=O)Cc1ccc2c3ccccc3n(C)c2c1 as listed: HSV augment: i; GALR2 ag: -0.5; RGS16-Gao HTS: 103; HSV augment primary fold: 0.99; INS promoter inh cell count: 72; PKD1 kinase inh: -10; INS promoter inh: -70

Additional structures
SMILES | HSV augment | GALR2 ag | RGS16-Gao HTS | HSV augment primary fold | INS promoter inh cell count | PKD1 kinase inh | INS promoter inh
CCOc1ccc2nc(NCCNC(=S)NCCCN(C)C)c(C#N)cc2c1 | i | nt | 100 | 0.92 | 61 | -5 | 24
O=c1[nH]nc(CNc2ccc(Cl)cc2Cl)c2ccccc12 | i | nt | 105 | 0.88 | nt | 4 | nt
CC(C)(C)c1csc(N/N=C/c2cccnc2)n1 | i | nt | 88 | 0.87 | nt | 1 | nt
C1CCN(c2nc(N3CCCC3)nc(N3CCNCC3)n2)C1 | i | -1.7 | 102 | 0.87 | nt | 2 | nt
CC(=O)c1cc(CN2C(=O)c3ccccc3C2=O)cs1 | i | -1.9 | 114 | 0.86 | 99 | -14 | 13
O=C(NNC(=O)c1ccccc1Br)c1ccc(SCC2CCCO2)c([N+](=O)[O-])c1 (stereo unspecified) | i | -4.8 | 100 | 1 | 201 | -5 | -33
COc1ccc(-n2c(CNc3ccc(C)cc3)nnc2SCc2ccccc2)cc1 | i | -2.1 | 90 | 0.9 | nt | 1 | nt
c1ccc(-c2ccccc2OCCOCCN2CCc3ccccc3C2)cc1 | i | nt | 104 | 0.95 | 82 | -7 | -20
O=C(Cc1c2ccccc2nc2ccccc12)c1ccccc1 | i | -0.3 | 103 | 0.88 | 137* | -1 | 61*
CCOc1ccc(/C=C/C(=O)Nc2cccc(C(C)=O)c2)cc1 | i | -1.7 | 44 | 0.86 | 56 | -11 | -10
CCC(=O)OCC(=O)Nc1ccc(OC)cc1[N+](=O)[O-] | i | nt | 98 | 0.97 | 110 | -5 | 29
Cc1cc(O)c(C(=O)c2ccccc2C(=O)O)cc1C | i | -3.0 | 93 | 1 | 111 | -9 | 13
COc1cccc(C2(O)CCN(C(=O)C(C)C)CC2)c1 | i | nt | 104 | 0.95 | nt | nt | nt
Cc1ccc(O)c(-c2cc(-c3ccccc3[N+](=O)[O-])[nH]n2)c1 | i | -1.5 | 112 | 0.84 | 59 | -6 | 0
CCSc1nnc2nc(C)cc(C)n12 | i | -0.9 | -16 | 1 | 91 | 0 | 46
COc1cc(OC)c(C2=NOC(C(=O)Nc3c(C)nn(CC(=O)N4CCCC4)c3C)C2)cc1Cl (stereo unspecified) | i | -1.7 | 102 | 0.98 | nt | 1 | nt
CCOC(=O)C1=NN(C(=O)Cc2ccccc2)C(O)(C(C)(C)C)C1 (stereo unspecified) | i | nt | 108 | 0.9 | nt | -5 | nt
CCn1cc(C(=S)N2CCC(C(N)=O)CC2)c2ccccc21 | i | nt | 100 | 1.1 | nt | -6 | nt
O=C(CN1CCN(S(=O)(=O)c2ccc(Cl)cc2)CC1)Nc1ccc(N2CCOCC2)cc1 | i | -0.7 | 101 | 0.95 | 93 | 3 | -78
COc1ccc(OCc2nnc(NC(=O)Nc3ccc(F)cc3)s2)cc1 | i | nt | 106 | 0.89 | nt | 0 | nt
CCOc1cc2c(C#N)c(N3CCOCC3)nc(N)c2c(N)n1 | i | nt | 105 | 1.1 | nt | nt | nt
CC1CN(C(=O)C(C)N2C(=O)c3ccccc3C2=O)CC(C)O1 (stereo unspecified) | i | -0.9 | 103 | 0.86 | nt | -1 | nt
O=c1[nH]c(CN2CCN(c3ncccn3)CC2)nc2c(Br)cc(Br)cc12 | i | nt | 89 | 0.93 | nt | nt | nt
COCCNC(=O)Nc1ccc2nc(-c3ccco3)c(-c3ccco3)nc2c1 | i | nt | 69 | 1.2 | nt | 9 | nt
C/C(=N\NC(=O)CSc1nc2ccccc2[nH]1)c1ccncc1 | i | nt | 103 | 1.1 | nt | -2 | nt
CC(=O)/C=C/n1c(=S)oc2ccccc21 | i | -1.7 | 98 | 0.57 | 25 | -12 | -31
CCO/C(C)=N/n1c2nc3ccccc3nc2c2c(=O)n(C3CCCC3)c(C)nc21 | i | -0.9 | 98 | 1.1 | 146 | -19 | 7
COc1cccc(S(=O)(=O)NCc2ccc(C(=O)Nc3ccc(Cl)c(Cl)c3)cc2)c1 | i | -4.8 | 83 | 0.86 | 116 | 0 | -15
CN(C)/C=C/C(=O)/C=C/c1cn(-c2ncc(C(F)(F)F)cc2Cl)c2ccccc12 | i | -4.0 | 102 | 0.96 | 51 | -3 | 16
Clc1cncc(Cl)c1N/N=C/c1ccncc1 | i | -1.0 | 99 | 0.9 | 171* | 91* | 62*
C=CC1CN(CC(=O)OC)S(=O)(=O)c2ccccc21 (stereo unspecified) | i | nt | 93 | 0.99 | nt | nt | nt
c1cnn(-c2cc(N3CCOCC3)ncn2)c1 | i | -1.0 | 98 | 0.89 | 235 | -4 | -19
CNc1nc(N/N=C/c2ccc([N+](=O)[O-])cc2)nc(Nc2ccccc2)n1 | i | 0.2 | 46 | 0.83 | 102 | 4 | 0
O=C(NCc1ccccc1)c1n[nH]nc1-c1ccccc1O | i | -1.5 | 93 | 1.1 | 143 | 3 | 35

Exported with two lines to a compound: part of the list above
Every second line gives: HSV augment | GALR2 ag | RGS16-Gao HTS | HSV augment primary fold | INS promoter inh cell count | PKD1 kinase inh | INS promoter inh
> c1cnn(-c2cc(N3CCOCC3)ncn2)c1
 : i | -1.0 | 98 | 0.89 | 235 | -4 | -19
> CNc1nc(N/N=C/c2ccc([N+](=O)[O-])cc2)nc(Nc2ccccc2)n1
 : i | 0.2 | 46 | 0.83 | 102 | 4 | 0
> O=C(NCc1ccccc1)c1n[nH]nc1-c1ccccc1O
 : i | -1.5 | 93 | 1.1 | 143 | 3 | 35
